# Rango complex inh = qHTS Assay for Inhibitors of Rango (Ran-regulated importin-beta cargo) - Importin beta complex formation | Importin subunit beta-1 (Homo sapiens), Q14974 | Rango CFP/YFP FRET sensor + importin beta, 45 min | Potency, µM (top dose mostly 92.2 µM), without a hit: at the top dose inhibition of complex formation | actives 0.031% (n = 340,000) | AID 540263, 2011; active = rising FRET ratio curve, often small or poorly fitted; inconclusive = mostly compound fluorescence or quenching in the first reads; inactive = flat curves in all reads;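 further: potency means the concentration at half of the fitted maximal effect; 0% = DMSO wells and 100% = buffer wells lacking importin beta; nearly all actives have a fitted effect of over 15% in size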
# Target sequence (Q14974 whole entry, looked up): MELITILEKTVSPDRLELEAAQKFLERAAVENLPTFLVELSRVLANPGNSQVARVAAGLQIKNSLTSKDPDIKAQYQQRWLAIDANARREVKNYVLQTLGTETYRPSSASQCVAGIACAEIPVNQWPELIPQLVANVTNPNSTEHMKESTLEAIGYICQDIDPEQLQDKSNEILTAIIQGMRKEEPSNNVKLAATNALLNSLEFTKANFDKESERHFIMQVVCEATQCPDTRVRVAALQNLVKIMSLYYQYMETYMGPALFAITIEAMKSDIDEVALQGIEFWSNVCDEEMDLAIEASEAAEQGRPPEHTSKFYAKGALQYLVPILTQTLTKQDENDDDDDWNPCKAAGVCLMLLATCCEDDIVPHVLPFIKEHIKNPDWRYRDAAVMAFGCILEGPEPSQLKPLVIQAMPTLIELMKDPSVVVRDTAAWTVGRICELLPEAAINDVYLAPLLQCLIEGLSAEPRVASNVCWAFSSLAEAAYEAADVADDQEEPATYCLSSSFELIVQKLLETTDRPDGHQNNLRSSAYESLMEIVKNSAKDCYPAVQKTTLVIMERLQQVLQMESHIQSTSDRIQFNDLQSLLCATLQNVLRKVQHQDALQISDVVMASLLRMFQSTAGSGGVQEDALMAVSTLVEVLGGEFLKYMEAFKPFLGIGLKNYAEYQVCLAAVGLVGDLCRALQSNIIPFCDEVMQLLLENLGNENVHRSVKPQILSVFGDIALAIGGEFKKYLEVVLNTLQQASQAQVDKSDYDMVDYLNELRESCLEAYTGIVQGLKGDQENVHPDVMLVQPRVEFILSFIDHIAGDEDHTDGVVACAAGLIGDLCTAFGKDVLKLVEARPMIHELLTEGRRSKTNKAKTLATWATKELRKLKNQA
#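 Inhibition scored from the CFP 486 nm/YFP 530 nm FRET ratio 45 min after adding 0.125 microM importin beta to 50 nM Rango biosensor preincubated 5 min with compound (room temperature, PBS with DTT, Tween-20, BSA). No-importin wells as positive control.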
# GLA inh pH 4.5 = qHTS Assay for Inhibitors of Human alpha-Galactosidase at pH 4.5. Alpha-galactosidase A (Homo sapiens), P06280. purified enzyme, 4-MU-alpha-Gal fluorescence, pH 4.5. activity change, negative = inhibition, % at 105 µM. 230,000 tested, under 10 active. AID 1467, 2008; inconclusive = small, poorly fitted or top-dose-only inhibition, or a rising curve; inactive = flat fitted curve, though single readings scatter; no compound was filed as active;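 further: 0% = full activity with enzyme and -100% = basal without enzyme; dose as in the result columns while the protocol names 77 µM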
# Rango dissoc inh = qHTS Assay for Inhibitors of RanGTP induced Rango (Ran-regulated importin-beta cargo) - Importin beta complex dissociation | Biochemical FRET Rango-importin beta, RanGTP-induced dissociation | Snurportin-1 (Homo sapiens) + GTP-binding nuclear protein Ran (Homo sapiens) + Importin … | AID 540253, 2011 | Potency, µM (titrated, usually from 46.1 µM), inactives show top-dose activity change, negative = inhibition | actives 0.071% (n = 340,000); active means falling FRET ratio curve, often poorly fitted, with flat reads before Ran was added; inconclusive means other falling curves, or compound fluorescence or quenching; inactive means flat or rising ratio curve;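 further: potency means the concentration at half of the fitted maximal effect; % of control where 0% means no effect; nearly all actives have a fitted effect of over 45% in size; -100% = wells without RanGTP and RCC1; the record marks most hits as doubtful in a second field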
#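 Recombinant Rango FRET biosensor (EYFP–snurportin 1 IBB–cerulean CFP10) at 0.1 uM premixed with 0.25 uM importin beta in PBS, 1 mM DTT, 0.02% Tween-20, 0.1% BSA. Compound added 5 min; RanGTP-RCC1 (0.6 uM Ran, 2 mM GTP, 0.2 uM RCC1) then triggers release, read at 45 min.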
# miR-21 FLuc = qHTS Assay for Modulators of miRNAs and/orActivators of miR-21; HeLa miR-21 FLuc reporter, luciferase, 48 h; Potency, µM (doses to about 38.3 µM), for inactives: at the highest dose reporter change, positive = more light; 340,000 tested, under 10 active; AID 2288, 2010; active = well fitted rising curve with a large enough effect; inconclusive = small, poorly fitted or top-dose-only effect; inactive = no such curve, though single readings can be large or run the other way;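 further: % of control where 0% means no effect; miR-21 action dims this reporter so a rising signal means less miR-21 action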
#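 Compounds were titrated across several concentrations (up to approximately 40 uM) and incubated 48 hours with HeLa miR-21-FLuc reporter cells (miR-21 target sequence downstream of FLuc, endogenous miR-21). Readout was firefly luciferase luminescence after lytic detection reagent.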
# Numbers without * were called inactive; u = inconclusive; x = no result given; & = joins results of further samples; [ ] = dose if it differs, or a comment. Some of the compounds tested; count on the stated rates, not on these rows.
molecule	miR-21 FLuc	Rango dissoc inh	GLA inh pH 4.5	Rango complex inh
N#C/C(=C\Nc1ccc(Cl)cn1)S(=O)(=O)c1ccccc1	-2%	13%	0	-0.3%
COc1cccc(C(=O)CC(=O)C(=O)Nc2cccc([N+](=O)[O-])c2C)c1	-1%	-11%	x	0.3%
O=C(COC(=O)Cn1cnc2ccccc21)Nc1ccc2c(c1)C(=O)c1ccccc1C2=O	-63%	3%	-21	-2.7%
CN(CC(=O)Nc1ccc(OC(F)(F)F)cc1)C(=O)/C=C/c1cc2c(cc1[N+](=O)[O-])OCO2	x	14%	x	-2.5%
CC(=O)Nc1ccc(-c2nnc(SCC(=O)Nc3ccc4c(c3)oc3ccccc34)n2C)cc1	-29%	-9%	8	-0.1%
CCOC(=O)/C(=N/Nc1ccccc1OC)N1CCCc2ccccc21	-14%	0%	-27	-3.1%
CC1(C)C(=O)Nc2ccccc2N1C(=O)CSc1nc(-c2ccccc2)cs1	-1%	-13%	2	1.7%
COc1cccc(OC)c1C(=O)NNS(=O)(=O)c1ccc2ccccc2c1	-5%	0%	x	1.9%
CN(CC(=O)NCc1cccnc1)S(=O)(=O)c1ccccc1	0%	0%	4	-1.3%
CCc1noc(C)c1C(=O)NNC(=O)c1cc(OC)cc(OC)c1	x	1%	x	-0.9%
CCN(CCn1cccn1)C(=O)CCc1nnc(Cc2c[nH]c3ccccc23)o1	-4%	0%	-3	0.8%
CCc1cccc(OCC2Cn3c(nc4c3c(=O)[nH]c(=O)n4C)O2)c1 (configuration not stated)	1%	15%	x	-3.5%
Cc1ccccc1C(=O)N/N=C/c1cccc2ccccc12	-54%	1%	x	0.3%
CC(C)N(CCc1ccncc1)C(=S)Nc1ccc(F)c(Cl)c1	16%	16%	-2	-5.7%
COc1ccc(CC(=O)NC2CCN(CC(=O)Nc3ccc4c(c3)OCCO4)CC2)cc1OC	4%	-2%	-10	-0.1%
COc1ccc(CCNC(=O)COc2ccccc2[N+](=O)[O-])cc1OC	-12%	-14%	-4	-4.3%
CCOC(=O)c1cnc2c(C)cccc2c1NCCc1ccc(OC)c(OC)c1	9%&17%	-6%	-5	-1.4%
CC1(C(=O)NC2CCCCCCC2)CCC(=O)N1CCN1CCOCC1 (configuration not stated)	-3%	1%	-2	1.0%
CN(C)c1cc(-c2ccc(Cl)c(Cl)c2)oc(=O)c1Cl	-4%	1%	13	3.2%
Cc1cc(C(=O)OCC(=O)Nc2ccc(F)cc2F)c(C)o1	-11%	-5%	0	-1.8%
O=C(COC(=O)c1ccc(NS(=O)(=O)c2cccs2)cc1)NCc1ccco1	-2%	-6%	-1	-8.6%
CC(C)CNS(=O)(=O)c1ccc(CC(C)C)cc1	-2%	40%	-6[21.1 µM]	-2.5%
CCCN(CCC)CCCNC(=O)c1cc2c(=O)n(CC)c3ccccc3c2s1	6%	26%	x	4.6%
O=C1C=C(c2ccccc2)C[C@H](c2cccs2)[C@H]1n1cnc([N+](=O)[O-])c1	-9%	6%	-2	5.1%
Oc1ccccc1/C=N/n1cnn(Cc2ccccc2Cl)c1=S	0%	-19%	4	-4.6%
Cc1ccc(NC2c3ncccc3C(=O)N2c2ccccc2C)cc1C (configuration not stated)	-36%	-9%	0	-0.1%
CSc1ccccc1NC(=O)c1cc(CC(C)C)on1	-57%	21%	-1	0.9%
CC(=O)NC(Cc1ccccc1)C(=O)NC1CCN(C(=O)NC2CCCCC2)CC1 (configuration not stated)	-1%	-9%	7	4.5%
CC(C)c1c(O)nc(SCC(=O)N2CCOCC2)[nH]c1=O	-1%	2%	-1	-6.4%
O=C(NCC1CCCO1)c1coc2nc3ccccc3nc12 (configuration not stated)	-16%	u	15	u
c1ccc(-c2onc(-c3ccco3)c2-c2ccc3c(c2)OCO3)cc1	-2%	u	x	u
Cc1ccc(NC2=C/C(=N/S(=O)(=O)c3cccs3)c3ccccc3C2=O)cc1	12%	9%	2	-0.9%
Cn1c(SCC(=O)Nc2cccc(F)c2)nc2c([nH]c3ccccc32)c1=O	1%	-10%	7	-2.1%
O=C(NCCc1nc2ccccc2[nH]1)/C(=C/c1ccco1)NC(=O)c1ccccc1Br	-2%	1%	2	-1.4%
Cc1ccc(CN2CCN(/N=C/c3sccc3C)CC2)c(C)c1	-5%	-13%	-4	-4.4%
CC1c2ccsc2CCN1S(=O)(=O)c1cccs1 (configuration not stated)	-2%	0%	2	0.6%
CCCCc1nnc(NC(=O)CSCc2cc(=O)n3ccsc3n2)s1	-2%	6%	x	0.0%
O=C1CC2(CCN(C(=O)c3cccc(Br)c3)CC2)Oc2ccccc21	x	11%	x	-2.4%
CC1c2[nH]c3ccccc3c2CCN1S(C)(=O)=O (configuration not stated)	-6%	1%	-4	0.9%
COc1ccc2c(C)cc(SCC(=O)c3ccc4c(c3)OCO4)nc2c1	-17%	-10%	2	u
Nc1ccc2nc(SCC(=O)Nc3ccc(N4CCOCC4)c(Cl)c3)sc2c1	-6%	10%	-3	0.1%
O=C(Nc1c(O)c2ccccc2[nH]c1=O)c1ccco1	2%	-13%	5	-3.2%
CCOc1ccccc1N(CC(=O)Nc1ccc2c(c1)OCO2)S(C)(=O)=O	-2%	0%	1	-0.1%
O=C(Cc1cccs1)N(c1ccc(F)cc1)C1(C(=O)NC2CCCCC2)CCCC1	-4%	14%	-8	-2.0%
Cc1ccc(-c2cc(C(F)F)n3ncc(C(=O)Nc4cn(C)nc4C)c3n2)cc1	-8%	-1%	-2	-1.6%
O=C(COc1ccccc1O)Nc1ccccc1Cl	-57%	3%	0	-0.5%
COc1ccc(C2C(CN3CCOCC3)C(=O)N2c2ccccc2)cc1 (configuration not stated)	-1%	-6%	-5	2.1%
O=C(c1cccs1)N1CCN(Cc2ccncc2)CC1	-8%	5%	10	1.6%
Cn1c(=O)c2c(nc3n2CC(COc2ccccc2)O3)n(C)c1=O (configuration not stated)	-1%	1%	x	2.8%
CC(C)CSc1nnc2c(n1)[nH]c1ccccc12	-47%	9%	4	-0.7%

# Other structures
molecule	miR-21 FLuc	Rango dissoc inh	GLA inh pH 4.5	Rango complex inh
COc1ccccc1C(=O)Nc1ccc(N2CCN(Cc3ccccc3)CC2)cc1	13%	-15%	-3	-1.1%
COCCOC1CCN(C(=O)C2CCC(=O)N(Cc3cccc(F)c3)C2)CC1 (configuration not stated)	2%	13%	x	-2.8%
CCCCC(=O)Nc1ccc(C(=O)NCc2ccncc2)cc1	-6%	27%	2	0.5%
CCC(=O)Nc1nc(C)cc(SCC(=O)OC)n1	-1%	-6%	2	u
O=C(CCn1cccn1)Nc1ccc2c(c1)OCO2	-25%	14%	x	-2.1%
COc1cc(C2/C(=C(\O)c3ccc4c(c3)CC(C)O4)C(=O)C(=O)N2CCN2CCOCC2)cc(OC)c1OC (configuration not stated)	-1%	0%	x	1.9%
COc1ccc(C(=O)Nc2ccc(N3CCN(C(=O)C(C)C)CC3)cc2)cc1[N+](=O)[O-]	-5%	-16%	6	1.3%
Cc1ccc(Cn2ccc(NC(=O)c3noc4c3CCCCC4)n2)cc1	-23%	5%	-3	-2.0%
CC1(C)CC(=O)c2sc(NS(=O)(=O)c3cc(Cl)ccc3Cl)nc2C1	-4%	-7%	x	-0.5%
O=C(OCC(=O)C12CC3CC(CC(C3)C1)C2)c1cccnc1	-6%	10%	-2	0.1%
C=CCc1ccccc1OCC(O)CN1CCN(CCN2C(=O)c3cccc4cccc(c34)C2=O)CC1 (configuration not stated)	23%	9%	-5	0.3%
CCOc1ncccc1C(=O)OCC(=O)Nc1ccc(C)c(S(=O)(=O)N(C)C)c1	1%	6%	-24	1.2%
FC(F)(F)c1cnc(Oc2cccc3ccccc23)c(Cl)c1	-5%	-26%	-5	-4.1%
CCOC(=O)c1sc(NC(=O)c2cc(-c3ccccc3)nc3ccccc23)c(C#N)c1C	6%	14%	-8	-1.5%
COC(=O)c1c(C)oc2ccc(N(C(=O)c3ccncc3)S(=O)(=O)c3ccc(C)cc3)cc12	26%	-22%	-1	-3.2%
COC(=O)C1=C(C)N(Cc2ccco2)C(=O)N[C@@H]1c1ccco1	x	-8%	3	-1.0%
O=C(CN1CCCC1)Nc1ccc([N+](=O)[O-])cc1	-3%	1%	3	-0.9%
CC(C)Oc1ccc(C(=O)NCc2cccnc2)cc1	-14%	-7%	6	0.9%
CCN(C(=O)COC(=O)c1cccnc1Nc1cccc(C(F)(F)F)c1)C1CCS(=O)(=O)C1 (configuration not stated)	-26%	-1%	0	2.1%
O=C(NC(=S)N1CCCCC1)C12CC3CC(CC(C3)C1)C2	-4%	-5%	14	u
Fc1cccc(Nc2c3c(nc4ccccc24)CCC3)c1	-7%	-6%	x	2.1%
COc1ccc(OCCSc2n[nH]c(N)n2)cc1	-31%	-19%	8	-2.3%
NS(=O)(=O)c1cccnc1Nc1cccc(C(F)(F)F)c1	-15%	-1%	2	0.5%
CCOC(=O)CC(=O)CSC1=C(C#N)C(c2ccccc2OC)CC(=O)N1 (configuration not stated)	-7%	-5%	-1	u
CCn1c(C)nc2cc(C(=O)N3N=C(CCOC)CC3(O)C(F)(F)F)ccc21 (configuration not stated)	-16%	51%	6	-0.4%
COc1cc(OC)cc(C(=O)Nc2nc(CC(=O)NC(C)c3ccccc3)cs2)c1 (configuration not stated)	x	1%	x	0.8%
O=C(COc1ccc2ccccc2c1)N1CCN(c2ccccc2)CC1	x	-16%	x	0.2%
Cc1ccc(NC(=O)CN2CCN(Cc3ccccc3)CC2)cc1	-19%	9%	x	-2.9%
NC(=O)[C@H]1CC2(CC(c3cccc(NC(=O)COc4ccc(Cl)cc4)c3)=NO2)CN1C(=O)c1ccc(Cl)cc1 (some centres not stated)	u	0%	-15	5.1%
Cc1cccc(N2CCN(S(=O)(=O)c3ccc4c(c3)CCCN4C(=O)C3CCC3)CC2C)c1 (configuration not stated)	-2%&10%	-17%	x	-3.2%
COc1ccccc1N1C(=NC(=O)COc2ccccc2)SC2CS(=O)(=O)CC21 (configuration not stated)	0%	9%	x	2.1%
CCOc1ccc(CCNC(=O)COC(=O)c2cccc(S(=O)(=O)N3CCCC3)c2)cc1OCC	x	1%	x	-1.6%
CCCS(=O)(=O)N1CCCC(C(=O)NCCN2CCCCC2C)C1 (configuration not stated)	-1%	u	1	u
CC1CC(NC(=O)c2cnc3n(c2=O)CCS3)CC(C)(C)C1 (configuration not stated)	0%	-3%	-4	-0.1%
CC(NC(=O)Cc1ccc(F)cc1)c1ccc(F)cc1 (configuration not stated)	-6%	8%	3	2.3%
Cc1ccccc1CN1CCN(C(=O)c2cccc3ccccc23)CC1	-1%	15%	x	0.3%
CCOC(=O)N1CCN(C(=O)c2nn(-c3ccc(C)cc3)c(=O)c3c2c2ccccc2n3C)CC1	-3%	6%	-8	-0.7%
N#CCCn1nnc(-c2ccccc2F)n1	-1%	1%	4	-2.1%

# Record cards, as listed above.
# NC(=O)[C@H]1CC2(CC(c3cccc(NC(=O)COc4ccc(Cl)cc4)c3)=NO2)CN1C(=O)c1ccc(Cl)cc1 (some centres not stated) in the list: miR-21 FLuc = u; Rango dissoc inh = 0%; GLA inh pH 4.5 = -15; Rango complex inh = 5.1%
# CC(C)c1c(O)nc(SCC(=O)N2CCOCC2)[nH]c1=O in the list: miR-21 FLuc = -1%; Rango dissoc inh = 2%; GLA inh pH 4.5 = -1; Rango complex inh = -6.4%
